Compound activity: PubChem, Broad Institute
FGF22 binding – shifts melting point of recombinant human FGF22; calls only at 9.99 µM; recombinant FGF22 thermal shift, SYPRO orange fluorescence; percent of sucrose octasulfate shift, DMSO zero; 340,000 compounds, 1.5% hits; Q9HCT0;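 active means melting point raised past a set limit in the mean and every replicate; three in four hits are not shown here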
Target sequence (Q9HCT0 whole entry, looked up): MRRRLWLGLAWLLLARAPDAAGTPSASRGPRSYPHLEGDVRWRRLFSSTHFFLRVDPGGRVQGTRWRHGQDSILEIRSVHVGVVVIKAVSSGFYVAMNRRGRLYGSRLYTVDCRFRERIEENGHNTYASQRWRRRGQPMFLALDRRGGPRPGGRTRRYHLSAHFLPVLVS
Calls only; i = inactive.

COc1cccc(C#Cc2ccc3c(c2)O[C@@H](CN(C)C(=O)CN2CCOCC2)[C@H](C)CN([C@@H](C)CO)S3(=O)=O)c1
  FGF22 binding: i

CCCC(=O)Nc1ccc2c(c1)C(=O)N(C)[C@@H]1CC[C@H](CC(=O)NCc3ccccc3)O[C@H]1CO2
  FGF22 binding: i

C[C@H]1CN([C@@H](C)CO)C(=O)c2cccc(NC(=O)c3cnccn3)c2O[C@@H]1CN(C)C(=O)NC1CCCCC1
  FGF22 binding: i

C[C@@H]1CCCCO[C@@H](CN(C)S(=O)(=O)c2ccc(F)cc2)[C@@H](C)CN([C@@H](C)CO)C(=O)c2cc(NS(=O)(=O)c3ccc(F)cc3)ccc2O1
  FGF22 binding: i

C/C=C/c1cnc2c(c1)C(=O)N([C@H](C)CO)C[C@@H](C)[C@H](CN(C)C(=O)Cc1ccccn1)O2
  FGF22 binding: i

O=C(C[C@@H]1C[C@@H]2c3cc(NC(=O)Cc4ccncc4)ccc3O[C@@H]2[C@H](CO)O1)NCCN1CCCCC1
  FGF22 binding: i

COc1ccc(S(=O)(=O)N2C[C@H](O)COC[C@H]3O[C@H](CC(=O)N[C@@H]4CCN(Cc5ccccc5)C4)CC[C@@H]32)cc1
  FGF22 binding: i

C[C@H](CO)N1C[C@H](C)[C@@H](CN(C)Cc2ccc3c(c2)OCO3)Oc2ccc(NC(=O)Nc3ccc(F)cc3)cc2C1=O
  FGF22 binding: i

O=C(C[C@@H]1C=C[C@H](NC(=O)c2ccncc2)[C@H](CO)O1)NCC1CC1
  FGF22 binding: i

C[C@H]1CN([C@@H](C)CO)S(=O)(=O)c2ccc(-c3ccccc3)cc2O[C@H]1CN(C)C(=O)CC1CC1
  FGF22 binding: i

Cc1noc(C)c1NC(=O)Nc1ccc2c(c1)C(=O)N([C@H](C)CO)C[C@H](C)[C@H](CN(C)C(=O)Nc1ccccc1)OCCCC[C@H](C)O2
  FGF22 binding: i

C/C=C/c1cnc2c(c1)C(=O)N([C@H](C)CO)C[C@@H](C)[C@@H](CN(C)C(=O)Cc1ccccc1)O2
  FGF22 binding: i

C[C@@H]1CN([C@@H](C)CO)S(=O)(=O)c2ccc(C#CC3(O)CCCC3)cc2O[C@@H]1CN(C)C(=O)Cc1ccccc1
  FGF22 binding: i

Cc1noc(C)c1NC(=O)Nc1ccc2c(c1)CC(=O)N([C@@H](C)CO)C[C@H](C)[C@H](CN(C)Cc1ccc(C(=O)Nc3ccccc3N)cc1)O2
  FGF22 binding: i

C[C@H]1CN([C@@H](C)CO)C(=O)c2cccc(NS(=O)(=O)c3ccc(Cl)cc3)c2O[C@@H]1CN(C)Cc1ccc(Oc2ccccc2)cc1
  FGF22 binding: i

COc1ccc(S(=O)(=O)Nc2ccc3c(c2)CC(=O)N([C@H](C)CO)C[C@H](C)[C@H](CN(C)S(=O)(=O)c2cn(C)cn2)O3)cc1
  FGF22 binding: i

CO[C@@H](CN(C)C(=O)Nc1ccc(F)cc1)[C@@H](C)CN(Cc1ccccc1Cl)[C@@H](C)CO
  FGF22 binding: i

C[C@@H]1CN([C@H](C)CO)C(=O)c2cc(NS(=O)(=O)c3ccc(F)cc3)ccc2O[C@@H]1CN(C)C
  FGF22 binding: i

CO[C@@H]1CN(C)C(=O)c2cc(NC(=O)C3CC3)ccc2OC[C@@H](C)N(Cc2ccccc2)C[C@@H]1C
  FGF22 binding: i

CN(C)CC#Cc1ccc([C@H]2[C@H](CO)N3CCCCN(C(=O)C4CCCC4)C[C@@H]23)cc1
  FGF22 binding: i

CCCC#Cc1ccc2c(c1)O[C@H](CN(C)C(=O)CN(C)C)[C@H](C)CN([C@H](C)CO)S2(=O)=O
  FGF22 binding: i

CC(C)NC(=O)NCC[C@@H]1CC[C@@H](NS(=O)(=O)c2ccc(-c3ccccc3)cc2)[C@H](CO)O1
  FGF22 binding: i

CS(=O)(=O)Nc1ccc2c(c1)[C@@H]1C[C@@H](CC(=O)NC3CCCCC3)O[C@@H](CO)[C@@H]1O2
  FGF22 binding: i

Cc1noc(C)c1S(=O)(=O)Nc1ccc2c(c1)C(=O)N([C@@H](C)CO)C[C@@H](C)[C@H](CN(C)Cc1ccc(C(F)(F)F)cc1)O2
  FGF22 binding: i

O=C(Nc1ccccc1)[C@@H]1[C@@H](CO)[C@@H]2Cn3c(cccc3=O)[C@@H]2N1C(=O)C1CCC1
  FGF22 binding: i

CCCN1[C@@H]2c3ccc(-c4ccccc4F)c(=O)n3C[C@@H]2[C@@H](CO)[C@@H]1C(=O)N1CCCCC1
  FGF22 binding: i

O=C(Nc1ccc(F)cc1)N[C@H]1CC[C@@H](CCNS(=O)(=O)c2ccccc2F)O[C@H]1CO
  FGF22 binding: i

O=C(C[C@@H]1CC[C@@H](NC(=O)c2ccc3c(c2)OCO3)[C@@H](CO)O1)NCc1ccc(F)cc1
  FGF22 binding: i

O=C(Nc1cccc(Cl)c1)N1C[C@H]2[C@@H](c3ccccc31)[C@@H](CO)N2Cc1cccnc1
  FGF22 binding: i

C[C@H](CO)N1C[C@H](C)[C@H](CN(C)Cc2ccc(C(F)(F)F)cc2)OCCCC[C@H](C)Oc2ccc(NC(=O)c3ccccc3)cc2C1=O
  FGF22 binding: i

OC[C@H]1[C@@H](c2ccc(-c3ccccc3)cc2)[C@@H]2CN(Cc3cncnc3)CCCCN12
  FGF22 binding: i

C[C@@H]1CN([C@H](C)CO)C(=O)c2ccccc2-c2ccccc2CO[C@@H]1CN(C)C(=O)Nc1ccnc(N2CCOCC2)c1
  FGF22 binding: i

CO[C@H]1CC[C@@H]2CCOc3ccc(C#N)cc3C(=O)N(C)[C@H](C)C(=O)N(C)C[C@@H]1O2
  FGF22 binding: i

CCCNC(=O)[C@H]1[C@H](CO)[C@H]2Cn3c(ccc(-c4ccccc4F)c3=O)[C@@H]1N2C(=O)CC
  FGF22 binding: i

Cc1noc(C)c1NC(=O)Nc1ccc2c(c1)C(=O)N([C@@H](C)CO)C[C@@H](C)[C@@H](CN(C)C(=O)NC(C)C)O2
  FGF22 binding: i

CCCC#Cc1ccc([C@H]2[C@H](C#N)N(C(=O)C3CC3)[C@H]2CO)cc1
  FGF22 binding: i

CCC(=O)Nc1ccc2c(c1)C(=O)N(C)C[C@@H](OC)[C@@H](C)CN(Cc1cccc(F)c1)[C@@H](C)CO2
  FGF22 binding: i

O=C(C[C@@H]1C[C@@H]2c3cc(NC(=O)c4cccnc4)ccc3O[C@@H]2[C@H](CO)O1)NCc1ccccn1
  FGF22 binding: i

COc1ccc(S(=O)(=O)N[C@@H]2CC[C@H](CCn3cc(C(C)C)nn3)O[C@@H]2CO)cc1
  FGF22 binding: i

COc1cccc(S(=O)(=O)Nc2ccc3c(c2)C(=O)N(C)C[C@H](OC)[C@@H](C)CN[C@@H](C)CO3)c1
  FGF22 binding: i

COc1ccc(CN2CC3(CCN(C(=O)c4ccccc4)CC3)c3c([nH]c4cc(OC)ccc34)[C@@H]2CO)cc1
  FGF22 binding: i

Cc1ccc(-c2ccc([C@@H]3[C@@H](CO)N4CCCCN(S(=O)(=O)c5cccc(C)c5)C[C@H]34)cc2)cc1
  FGF22 binding: i

C[C@H]1CN([C@@H](C)CO)C(=O)c2cc(-c3cccnc3)cnc2O[C@H]1CN(C)C(=O)NC1CCCC1
  FGF22 binding: i

C[C@@H]1CN([C@H](C)CO)C(=O)Cc2cc(NC(=O)C3CC3)ccc2O[C@H]1CN(C)S(=O)(=O)c1ccc(Cl)cc1
  FGF22 binding: i

CCCC(=O)Nc1ccc2c(c1)C(=O)N(C)C[C@@H](OC)[C@H](C)CN(CCC)[C@H](C)CO2
  FGF22 binding: i

CO[C@@H]1CN(C)C(=O)c2cc(NS(C)(=O)=O)ccc2OC[C@H](C)N(C(=O)C2CCCCC2)C[C@H]1C
  FGF22 binding: i

CCO[C@@H]1OC(C(=O)N2CCN(Cc3ccc4c(c3)OCO4)CC2)=C[C@H](C(C)(C)C)[C@H]1CCCO
  FGF22 binding: i

COc1ccc2c3c(n(C)c2c1)[C@H](CO)N(C(=O)CN(C)C)CC31CCN(C(=O)NC(C)C)CC1
  FGF22 binding: i

CC(=O)N1[C@@H]2c3ccc(-c4cccc(F)c4)c(=O)n3C[C@@H]2[C@@H](CO)[C@@H]1C(=O)NCCCN(C)C
  FGF22 binding: i

O=C(CCN1CCCCC1)N[C@H]1CC[C@H](CCNS(=O)(=O)c2ccc(Cl)cc2)O[C@H]1CO
  FGF22 binding: i

C[C@H](CO)N1C[C@H](C)[C@@H](CN(C)C(=O)C2CCCCC2)OCCCC[C@H](C)Oc2ccc(NS(=O)(=O)c3ccccc3)cc2C1=O
  FGF22 binding: i

COc1ccc(S(=O)(=O)N(C)C[C@@H]2Oc3ccc(NS(=O)(=O)c4c(C)noc4C)cc3C(=O)N([C@@H](C)CO)C[C@@H]2C)cc1
  FGF22 binding: i

C[C@@H]1CN([C@@H](C)CO)C(=O)c2cc(NC(=O)C3CCCCC3)ccc2O[C@@H](C)CCCCO[C@H]1CN(C)S(=O)(=O)c1cn(C)cn1
  FGF22 binding: i

CC(C)C[C@@H]1NC(=O)[C@@H]2C[C@H](C(=O)O)[C@H](c3cccc(OCCO)c3)N2C1=O
  FGF22 binding: i

CN1C(=O)c2cc(NC(=O)c3ccc(F)cc3)ccc2OC[C@@H]2O[C@H](CC(=O)N3CCOCC3)CC[C@@H]21
  FGF22 binding: i

C[C@@H]1CN([C@@H](C)CO)C(=O)c2cccc(NS(=O)(=O)c3cn(C)cn3)c2O[C@H]1CN(C)CC1CC1
  FGF22 binding: i

Cc1ccc(S(=O)(=O)Nc2ccc3c(c2)CC(=O)N([C@@H](C)CO)C[C@@H](C)[C@H](CN(C)Cc2ccncc2)O3)cc1
  FGF22 binding: i

C[C@H]1CN([C@@H](C)CO)C(=O)Cc2cc(NS(=O)(=O)c3ccc(F)cc3)ccc2O[C@H]1CN(C)S(C)(=O)=O
  FGF22 binding: i

C[C@H](CO)N1C[C@H](C)[C@H](CN(C)Cc2ccc(-c3ccccc3)cc2)Oc2ccc(NC(=O)CCCN(C)C)cc2C1=O
  FGF22 binding: i

C[C@H]1CN([C@@H](C)CO)C(=O)c2cc(NC(=O)Nc3ccc4c(c3)OCO4)ccc2O[C@H]1CN(C)CC1CCCCC1
  FGF22 binding: i

The closing three records of the section before open the next one.
C[C@H]1CN([C@@H](C)CO)C(=O)Cc2cc(NS(=O)(=O)c3ccc(F)cc3)ccc2O[C@H]1CN(C)S(C)(=O)=O
  FGF22 binding: i

C[C@H](CO)N1C[C@H](C)[C@H](CN(C)Cc2ccc(-c3ccccc3)cc2)Oc2ccc(NC(=O)CCCN(C)C)cc2C1=O
  FGF22 binding: i

C[C@H]1CN([C@@H](C)CO)C(=O)c2cc(NC(=O)Nc3ccc4c(c3)OCO4)ccc2O[C@H]1CN(C)CC1CCCCC1
  FGF22 binding: i

C/C=C/c1cnc2c(c1)C(=O)N([C@@H](C)CO)C[C@@H](C)[C@@H](CN(C)Cc1ccc(F)cc1)O2
  FGF22 binding: i

COc1ccc(S(=O)(=O)N(C)C[C@H]2OCCCC[C@@H](C)Oc3ccc(NC(=O)c4ccccc4)cc3C(=O)N([C@H](C)CO)C[C@@H]2C)cc1
  FGF22 binding: i

Cc1noc(C)c1NC(=O)Nc1ccc2c(c1)C(=O)N([C@H](C)CO)C[C@@H](C)[C@@H](CN(C)S(=O)(=O)c1cccs1)O2
  FGF22 binding: i

COCC(=O)Nc1ccc2c(c1)[C@@H]1C[C@@H](CC(=O)NCc3cc(F)ccc3F)O[C@H](CO)[C@@H]1O2
  FGF22 binding: i

C[C@@H]1CCCCO[C@H](CN(C)C(=O)NC2CCCCC2)[C@@H](C)CN([C@@H](C)CO)C(=O)c2cc(NC(=O)Nc3ccc(C(F)(F)F)cc3)ccc2O1
  FGF22 binding: i

O=C(NCc1ccccc1)[C@@H]1[C@@H](CO)[C@@H]2Cn3c(cccc3=O)[C@H]1N2C(=O)CC1CC1
  FGF22 binding: i

O=C(C[C@H]1CC[C@H]2[C@@H](COC[C@@H](O)CN2Cc2nccs2)O1)NCc1ccc(F)cc1
  FGF22 binding: i

CN1[C@H](CO)[C@@H]2c3ccccc3N(C(=O)Nc3cc(F)ccc3F)C[C@@H]21
  FGF22 binding: i

C[C@H]1CN([C@@H](C)CO)C(=O)c2cc(NC(=O)Cc3cn(C)c4ccccc34)ccc2O[C@H]1CN(C)Cc1ccc(Cl)c(Cl)c1
  FGF22 binding: i

CCC(=O)N1C[C@@H]2[C@H](c3ccccc31)[C@H](CO)N2Cc1ccccc1F
  FGF22 binding: i

CO[C@@H]1CN(C)C(=O)c2cc(NS(=O)(=O)c3ccc(C)cc3)ccc2OC[C@@H](C)N(Cc2ccccn2)C[C@H]1C
  FGF22 binding: i

CN1c2ccc(-c3cccc(F)c3)cc2[C@H]2[C@H](CCN2S(=O)(=O)c2cccc(F)c2)[C@@H]1CO
  FGF22 binding: i

COCC#Cc1cnc2c(c1)C(=O)N([C@@H](C)CO)C[C@@H](C)[C@H](CN(C)C(=O)Cc1ccncc1)O2
  FGF22 binding: i

C[C@H](CO)N1C[C@H](C)[C@@H](CN(C)Cc2ccccc2F)Oc2cc(C#CC3CC3)ccc2S1(=O)=O
  FGF22 binding: i

O=C(NCC1CC1)[C@H]1[C@H](CO)[C@H]2Cn3c(ccc(-c4ccccc4)c3=O)[C@@H]1N2Cc1nccs1
  FGF22 binding: i

C[C@@H]1CCCCO[C@@H](CN(C)S(C)(=O)=O)[C@@H](C)CN([C@H](C)CO)C(=O)c2cc(NC(=O)Nc3ccc4c(c3)OCO4)ccc2O1
  FGF22 binding: i

Cc1ccc(CN(C)C[C@@H]2OCc3cn(nn3)CCCC(=O)N([C@@H](C)CO)C[C@@H]2C)cc1
  FGF22 binding: i

CO[C@H]1CN(C)C(=O)c2ccc(NC(=O)C3CC3)cc2OC[C@H](C)N(C(=O)c2ccccc2F)C[C@@H]1C
  FGF22 binding: i

C[C@H](CO)N1C[C@H](C)[C@H](CN(C)CC2CCCCC2)Oc2ccc(NC(=O)Nc3ccc(C(F)(F)F)cc3)cc2CC1=O
  FGF22 binding: i

CCC(=O)N1C[C@@H](C)[C@@H](OC)CN(C)C(=O)c2cc(NC(=O)NC(C)C)ccc2OC[C@@H]1C
  FGF22 binding: i

C[C@@H]1CN([C@H](C)CO)C(=O)c2cc(NC(=O)CCC(F)(F)F)ccc2O[C@H]1CN(C)C(=O)Nc1ccc(C(F)(F)F)cc1
  FGF22 binding: i

C[C@H](CO)N1C[C@H](C)[C@@H](CN(C)S(=O)(=O)c2ccc(F)cc2)OCCCC[C@H](C)Oc2ccc(NC(=O)Nc3ccc(F)cc3)cc2C1=O
  FGF22 binding: i

A portion of the library; rates above refer to the full screens.
